HSV augment: increases HSV replication in cells; maximum fold increase; HSV replication augmentation in cells, fold increase; hit rate 0.005% among 220,000;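 active = peak rise of 1.5-fold or more in the series; tested in PC3 cells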;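 note: first round at 10 µM; read as green reporter fluorescence; hits show the peak of a series up to 25 µM; 1 = signal of infected wells without compound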
PKD1 inh: blocks activity of human protein kinase D1; Q15139; PKD1 kinase fluorescence polarization assay; inhibition, %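 (about 10 µM by stock and volumes)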; hit rate 0.056% among 200,000; AID 797;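 active = inhibition of 50% or more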;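 note: controls were vehicle for no effect and a reference inhibitor for full effect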
Target sequence (Q15139 whole entry, looked up): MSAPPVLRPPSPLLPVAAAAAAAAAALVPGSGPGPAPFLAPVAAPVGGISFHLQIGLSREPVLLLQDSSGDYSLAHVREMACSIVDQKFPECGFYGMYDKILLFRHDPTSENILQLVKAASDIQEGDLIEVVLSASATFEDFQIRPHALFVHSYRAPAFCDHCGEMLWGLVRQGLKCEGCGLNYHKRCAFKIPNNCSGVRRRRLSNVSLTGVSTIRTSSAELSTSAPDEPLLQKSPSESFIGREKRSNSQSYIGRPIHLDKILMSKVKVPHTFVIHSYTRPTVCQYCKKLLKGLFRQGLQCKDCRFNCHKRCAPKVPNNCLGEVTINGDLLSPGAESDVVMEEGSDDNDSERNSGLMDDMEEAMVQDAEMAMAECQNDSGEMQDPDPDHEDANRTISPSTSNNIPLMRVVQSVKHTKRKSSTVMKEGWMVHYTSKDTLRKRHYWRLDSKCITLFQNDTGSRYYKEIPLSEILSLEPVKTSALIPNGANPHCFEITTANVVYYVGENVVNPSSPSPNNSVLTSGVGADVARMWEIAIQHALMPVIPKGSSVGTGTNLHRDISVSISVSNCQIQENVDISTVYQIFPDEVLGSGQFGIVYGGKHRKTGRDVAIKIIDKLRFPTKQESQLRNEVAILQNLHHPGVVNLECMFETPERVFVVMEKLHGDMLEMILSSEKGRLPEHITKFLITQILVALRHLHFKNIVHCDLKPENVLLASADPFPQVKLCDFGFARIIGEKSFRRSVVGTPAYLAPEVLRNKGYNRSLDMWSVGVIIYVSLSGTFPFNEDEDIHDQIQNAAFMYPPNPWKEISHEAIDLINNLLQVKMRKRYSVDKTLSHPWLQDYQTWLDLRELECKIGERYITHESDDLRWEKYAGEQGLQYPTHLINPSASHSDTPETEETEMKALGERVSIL
Insulin prom inh: TRM-6 insulin promoter activity inhibition; TRM-6 cells (human fetal islet line), insulin promoter-eGFP reporter, imaging; reporter expression induced with tamoxifen; AID 1273; inhibition, % at 2 µM; hit rate 0.9% among 130,000;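 active = inhibition above the mean plus 3 SD, with well images judged a real hit on visual review, cut at about 60% in these data, passing the limit was not always enough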
RGS16-Gao: regulators of human RGS16-Galphao interaction; O15492+P09471; bead-based flow cytometry RGS16-Galphao binding, fluorescence; actives lie on both sides; binding response (% of control), % at 10 µM; hit rate 0.38% among 220,000; AID 1441;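 active = below 25% or above 175%, edge rows of some plates excepted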;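 note: Galphao activated by GDP with aluminum fluoride before binding; 100% = wells without compound and 0% = beads without RGS; some results beyond the cut were filed as inactive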
GALR2 ag: GALR2 (human) receptor agonism. GALR2-expressing cells, agonist activation read-out. activation, %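 (tested at 5 µM)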. hit rate 0.48% among 140,000;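 active = above mean plus 3 SD of all compounds, about 5% in these data, not always enough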;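 note: 0% = vehicle buffer wells and 100% = reference agonist at full effect; tested in CHO reporter cells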
Insulin prom inh cell count: also measured in Insulin prom inh; calls as there; normalized cell count, %; measured here: cell count, toxicity; reference of the scale not given here;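 cells exposed to compound for 48 h; stained nuclei by imaging scaled within each plate; lower means fewer cells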
HSV augment primary fold: also measured in HSV augment; calls as there; fold increase; compound at 10 µM; measured here: primary screen fold increase 10 uM; tested in PC3 cells;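 GFP signal in the first replicate; 1 = infected wells without compound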
* = called active by the depositor; i = inactive; · = no result given.

SMILES	HSV augment	HSV augment primary fold	PKD1 inh	Insulin prom inh	Insulin prom inh cell count	RGS16-Gao	GALR2 ag
O=C(CCC(=O)N1CCCC1)Nc1nnc(C2CCCCC2)s1	i	0.977	6.5	6.7	47.0	134.3	-0.8
Cc1ccnc(N2CCCC(C(=O)Nc3cc(F)ccc3C)C2)n1 (stereo not given)	i	0.96	-10.4	·	·	101.4	-1.5
CCN(CC(=O)NC(C)C)C(=O)c1ccc(S(=O)(=O)N(C)c2ccccc2OC)cc1	i	0.99	-0.4	·	·	95.7	-2.5
CCCCNC(=O)Nc1ccon1	i	0.95	-3.1	33.3	105.4	98.2	-1.3
NNc1ccc(Cl)c(C(=O)O)c1	i	1.07	·	·	·	97.5	·
CSC1=NCCN1C(=O)Cc1cccc2ccccc12	i	0.86	·	·	·	99.3	·
N#Cc1ccccc1Sc1ccccc1C(=O)OCC(=O)NC1CCCCC1	i	0.91	4.5	30.8	102.3	101.2	-1.1
CC(C)(C)c1ccc(N2C(=N)SCC2=O)cc1	i	0.92	·	·	·	105.3	·
COc1ccc(S(=O)(=O)N(C(C)=O)c2ccc3oc(=O)sc3c2)cc1	i	0.66	-7.2	·	·	109.2	-0.8
CCOC(=O)N1CCC(NC(=O)c2cc3c(=O)n(C)c4ccccc4c3n2C)CC1	i	0.96	-3.8	·	·	102.2	1.9
COc1ccc(N2CCN(S(=O)(=O)c3ccc4c(c3)OCCO4)CC2)cc1	i	0.95	-4.6	·	·	101.1	·
COC(=O)CCN(C(=O)c1cccc(OC(C)=O)c1)c1ccccn1	i	1.07	2.7	36.7	110.9	106.1	-0.9
Cn1c(=O)[nH]c(=O)c2c1nc(N1CCCCC1)n2C/C=N/Nc1ccc(C(=O)O)cc1	i	0.91	·	·	·	104.8	·
C/C(=N/OC(=O)c1ccc(C)cc1)c1ccc(N2C(=O)C3CCCCC3C2=O)cc1 (stereo not given)	i	0.94	4.4	-3.2	114.5	105.2	-0.5
O=C(c1ccccc1)c1nn(-c2ccccc2)c2nnc(Cc3ccccc3)c(=O)n12	i	0.87	3.6	0.0	99.8	73.9	0.2
Cc1cc(C(=O)N/N=C2\CCCC(=O)C2)c(C)n1-c1ccccc1	i	0.98	-4.9	·	·	85.0	-2.4
COC(=O)CCSC(=S)N1CCOCC1	i	1.04	·	·	·	100.3	·
O=C(Nc1ccccc1C(=O)N1CCCC1)C1CCN(c2ncccn2)CC1	i	0.7	-0.2	-19.2	113.4	100.9	-1.2
CCn1cnc2cc(NS(=O)(=O)c3ccc(C)cc3)ccc21	i	1.06	0.3	-31.4	186.9	108.6	-1.4
O=C(Cn1cc[n+](CC(=O)c2ccc(Cl)cc2Cl)c1)c1ccc(Cl)cc1Cl	i	0.71	·	·	·	101.7	·

Sorted by length of the SMILES (ascending): part of the list above.
SMILES	HSV augment	HSV augment primary fold	PKD1 inh	Insulin prom inh	Insulin prom inh cell count	RGS16-Gao	GALR2 ag
CCCCNC(=O)Nc1ccon1	i	0.95	-3.1	33.3	105.4	98.2	-1.3
NNc1ccc(Cl)c(C(=O)O)c1	i	1.07	·	·	·	97.5	·
COC(=O)CCSC(=S)N1CCOCC1	i	1.04	·	·	·	100.3	·
CSC1=NCCN1C(=O)Cc1cccc2ccccc12	i	0.86	·	·	·	99.3	·
CC(C)(C)c1ccc(N2C(=N)SCC2=O)cc1	i	0.92	·	·	·	105.3	·
O=C(CCC(=O)N1CCCC1)Nc1nnc(C2CCCCC2)s1	i	0.977	6.5	6.7	47.0	134.3	-0.8
CCn1cnc2cc(NS(=O)(=O)c3ccc(C)cc3)ccc21	i	1.06	0.3	-31.4	186.9	108.6	-1.4
Cc1ccnc(N2CCCC(C(=O)Nc3cc(F)ccc3C)C2)n1 (stereo not given)	i	0.96	-10.4	·	·	101.4	-1.5
N#Cc1ccccc1Sc1ccccc1C(=O)OCC(=O)NC1CCCCC1	i	0.91	4.5	30.8	102.3	101.2	-1.1
COC(=O)CCN(C(=O)c1cccc(OC(C)=O)c1)c1ccccn1	i	1.07	2.7	36.7	110.9	106.1	-0.9
O=C(Nc1ccccc1C(=O)N1CCCC1)C1CCN(c2ncccn2)CC1	i	0.7	-0.2	-19.2	113.4	100.9	-1.2
COc1ccc(N2CCN(S(=O)(=O)c3ccc4c(c3)OCCO4)CC2)cc1	i	0.95	-4.6	·	·	101.1	·
CCOC(=O)N1CCC(NC(=O)c2cc3c(=O)n(C)c4ccccc4c3n2C)CC1	i	0.96	-3.8	·	·	102.2	1.9
O=C(c1ccccc1)c1nn(-c2ccccc2)c2nnc(Cc3ccccc3)c(=O)n12	i	0.87	3.6	0.0	99.8	73.9	0.2
C/C(=N/OC(=O)c1ccc(C)cc1)c1ccc(N2C(=O)C3CCCCC3C2=O)cc1 (stereo not given)	i	0.94	4.4	-3.2	114.5	105.2	-0.5
CCN(CC(=O)NC(C)C)C(=O)c1ccc(S(=O)(=O)N(C)c2ccccc2OC)cc1	i	0.99	-0.4	·	·	95.7	-2.5
Cn1c(=O)[nH]c(=O)c2c1nc(N1CCCCC1)n2C/C=N/Nc1ccc(C(=O)O)cc1	i	0.91	·	·	·	104.8	·

Additional entries:
SMILES	HSV augment	HSV augment primary fold	PKD1 inh	Insulin prom inh	Insulin prom inh cell count	RGS16-Gao	GALR2 ag
Cc1cc(-c2nc3ncccc3o2)ccc1NC(=S)NC(=O)C(C)C	i	1.04	-5.7	·	·	99.1	·
CCOC(=O)N1CCC(N2Cc3cccc(C(=O)N4CC(C)CC(C)C4)c3C2=O)CC1 (stereo not given)	i	1.07	0.7	-5.6	128.5	104.3	-1.3
CC(=O)Nc1cc(C(F)(F)F)ccc1OCC1CCCO1 (stereo not given)	i	0.9	2.0	-50.0	82.1	99.3	-0.5
O=C(N/N=C/c1ccco1)C1(O)c2ccccc2-c2ccccc21	i	1.03	·	·	·	99.8	·
COc1ccc2occ(C(=O)c3ccc(N=C(C)N(C)C)cc3)c2c1	·	·	1.9	14.3	81.6	100.4	-1.3
CCN(CC)C(=O)c1cc(-c2ccc(Br)cc2)on1	i	0.92	-3.5	-20.0	185.3	102.3	-2.4
COc1ccc(CN(C(=O)COc2ccccc2)c2ccccc2C(=O)O)cc1	i	1.08	·	·	·	104.3	·
CCCN(Cc1ccccc1)C(=S)Nc1cccc(C)c1C	i	0.85	-1.4	·	·	98.1	·
Cc1ccc(S(=O)(=O)NCC(c2cccnc2)N2CCOCC2)cc1 (stereo not given)	i	0.98	-6.2	-65.0	76.9	102.8	·
Clc1ccc(Cl)c(OCCN2CCOCC2)c1	i	1.04	-0.1	-200.0	66.8	100.9	-1.6
Cn1c(-c2ccccc2)nc2cnccc21	i	0.98	·	·	·	96.6	·
COC(=O)c1ccc(CNC(=O)COc2ccccc2Br)o1	i	1.15	-8.8	-6.1	90.3	99.0	-1.2
O=S(=O)(/N=C(/c1ccccc1)N1CCCCCC1)c1ccccc1	i	0.98	6.3	·	·	101.0	·
COc1ccc(C)cc1C1=Nc2ccccc2C1(C)C	i	1.02	-16.5	-3.1	150.8	102.9	-1.0
COc1cccc(N2CCN(C3CC(=O)N(c4ccc(Cl)cc4)C3=O)CC2)c1 (stereo not given)	i	0.98	-5.5	·	·	101.3	-1.0
COc1ccc(/C=C/C2=NN(C)C(=O)CC2)cc1	i	0.71	-0.4	84.6*	113.0*	99.2	·
CCOC(=O)C1=C(C)NC(SCC(N)=O)=C(C#N)C1c1ccccc1 (stereo not given)	i	1	-5.3	-25.0	133.8	106.8	-2.1
O=C(CCC1CCCCC1)NCCN1C2=NC[C@H](Cc3ccccc3)N2C[C@H]1Cc1ccc(O)cc1	i	1	0.9	·	·	101.1	·
COc1ccc(C)cc1NC(=O)c1cc2c(=O)n3ccccc3nc2n1C	i	1.23	3.2	-33.3	106.9	106.1	·
Cc1cnc(Nc2nc3ccccc3o2)nc1C(=O)Nc1cccc(C(F)(F)F)c1	i	0.84	-3.5	15.4	85.3	98.6	-0.2
CCOc1cc(/C=C2/C(=N)N3OC(C)=CC3=NC2=O)ccc1OC	i	1.05	-3.1	-6.7	55.1	101.6	·
COc1ccc(OC)c(C2C(C(=O)c3ccc(C)o3)=C(O)C(=O)N2CCCN2CCOCC2)c1 (stereo not given)	·	·	-1.5	66.7	93.3	·	-3.8
CCC(C)(C)n1nnnc1C(c1cc(OC)ccc1OC)N1CCN(Cc2ccccc2)CC1 (stereo not given)	i	0.95	-9.1	33.3	95.1	97.4	·
NS(=O)(=O)c1ccc(CNC(=O)c2ccc(Br)o2)cc1	i	1.07	5.9	13.2	159.1	103.5	0.7
CC1(C)CC(=O)C(C2(O)C(=O)Nc3ccccc32)CO1 (stereo not given)	i	1.05	3.2	·	·	102.5	·
CC1(C)C2CCC(C2)C1(C)NC(=O)C[N+](C)(C)C (stereo not given)	i	0.81	·	·	·	100.4	·
O=C(Nc1c(F)c(F)c(F)c(F)c1F)C1CCCCC1	i	0.977	-13.1	-34.6	95.4	103.5	-0.5
Cc1ccccc1C(=O)NC(NCC1CCCO1)C(Cl)(Cl)Cl (stereo not given)	i	1.02	-13.9	·	·	103.4	-2.5
O=C(CN1C(=O)NC2(CCCCCC2)C1=O)c1ccc2c(c1)OCCO2	i	0.93	4.8	-14.3	150.5	98.3	-3.1
CCc1nc(-c2ccccc2)c2ccccn12	i	0.96	2.3	·	·	93.9	·
COc1ccc(C(=O)/C=C/Nc2ccc([N+](=O)[O-])cc2)cc1	i	1.06	1.1	-10.8	68.4	99.3	0.0
O=C(CNC(=O)c1cccs1)NCC(=O)OCc1c(F)cccc1Cl	i	0.9	3.8	·	·	102.8	·
O=C(CC1SC(=NCC2CCCO2)NC1=O)Nc1cccc2ccccc12 (stereo not given)	i	0.96	1.8	19.4	127.6	-12.1*	-0.2
O=C(/C=C/c1ccccc1)c1ccc2c(c1)OCCCCO2	i	0.917	-3.3	·	·	101.4	-2.9
Cc1ccc(OCc2ccc(C#N)cc2)c(C(=O)c2cc(C#N)c(=O)n(C3CC3)c2)c1	i	1.1	0.7	·	·	105.3	-0.9
COc1ccc(C2(c3ccc(O)cc3O)CC(c3ccccc3Cl)NC(=S)N2)cc1 (stereo not given)	i	0.88	-1.2	·	·	126.8	·
CN(C)S(=O)(=O)c1ccc(-c2csc(N/N=C/c3ccco3)n2)cc1	i	0.7	·	·	·	101.2	·
CCn1c(SCC(=O)c2cc(OC)ccc2OC)nnc1C1CC1	i	0.91	-6.4	-7.7	164.4	·	-0.8
Cc1cc(C)n(CCc2nc(-c3cc4ccccc4o3)cs2)n1	·	·	-3.9	12.9	115.3	101.4	-4.0
CCOC(=O)C1CCCCN1Cc1cn(C)nc1-c1ccccc1F (stereo not given)	i	1.03	·	·	·	92.0	·
CCCn1c(=O)c(C(=O)NCC2CCCO2)c(O)c2ccccc21 (stereo not given)	i	1.07	-1.1	·	·	101.6	·
Cc1csc2c(N3CCN(C(=O)Nc4ccc(Cl)c(Cl)c4)CC3)ncnc12	i	1.14	·	·	·	105.3	·
O=C(Nc1cc2c(cc1Cl)OCCCO2)c1ccc(F)cc1	i	0.88	-2.7	-4.8	114.9	112.7	0.0
CC(C)(C)CC(=O)O/N=C(\N)c1ccccn1	i	1.09	-4.1	·	·	108.3	0.2
Cc1cc(NC(=O)Cn2nnc3sc4c(c3c2=O)CCC(C(C)(C)C)C4)no1 (stereo not given)	i	0.9	-4.0	·	·	98.7	-2.8
C/C(Cn1cnc([N+](=O)[O-])n1)=N\NC(=O)c1ccccc1F	i	0.93	-0.4	-161.9	83.6	106.2	-0.6
Cc1ccc(-n2c(SCC(N)=O)nnc2-c2ccccn2)cc1	i	0.89	-4.0	34.6	116.2	105.2	-1.7
CCCCCCC(C)n1cc(C(C)=O)c(=O)[nH]c1=O (stereo not given)	i	1.03	-8.2	·	·	98.8	-0.9
CCc1ccccc1NC(=O)N1CCCC(CCC(=O)N(C)CCc2ccccn2)C1 (stereo not given)	i	0.92	3.1	-30.0	109.0	119.5	·
O=C1CCc2cc(S(=O)(=O)N3CCC(C(=O)NC4CCCc5ccccc54)CC3)ccc2N1 (stereo not given)	i	0.96	-7.6	·	·	102.0	-1.9
O=C(Nc1ccncc1)c1ccc(NS(=O)(=O)c2cccc(F)c2)cc1	i	0.89	5.1	-50.0	122.2	104.7	-0.5
CN(C)c1nc(C(=O)Nc2ccccc2)nc(N(C)C)n1	i	0.867	-4.2	-52.8	109.0	106.5	-0.9
